# Compound activity deposited in PubChem by National Center for Advancing Translational Sciences (NCATS).
# TRPML1 ag: qHTS for Agonists of the Human Mucolipin Transient Receptor Potential 1 (TRPML1). TRPML1-expressing cells, Ca2+ dye fluorescence, FDSS; host cell line not named in the record; reference of the full effect not given here. activation, % (no concentration beside the values). actives 0.12% (n = 410,000); in the data active = activation above about 50%; inconclusive = about 30% to 50%; inactive = below about 30%; also: 0% is about no effect; the text of the record puts the active cut at 80%
# Target sequence (Q9GZU1 whole entry, looked up): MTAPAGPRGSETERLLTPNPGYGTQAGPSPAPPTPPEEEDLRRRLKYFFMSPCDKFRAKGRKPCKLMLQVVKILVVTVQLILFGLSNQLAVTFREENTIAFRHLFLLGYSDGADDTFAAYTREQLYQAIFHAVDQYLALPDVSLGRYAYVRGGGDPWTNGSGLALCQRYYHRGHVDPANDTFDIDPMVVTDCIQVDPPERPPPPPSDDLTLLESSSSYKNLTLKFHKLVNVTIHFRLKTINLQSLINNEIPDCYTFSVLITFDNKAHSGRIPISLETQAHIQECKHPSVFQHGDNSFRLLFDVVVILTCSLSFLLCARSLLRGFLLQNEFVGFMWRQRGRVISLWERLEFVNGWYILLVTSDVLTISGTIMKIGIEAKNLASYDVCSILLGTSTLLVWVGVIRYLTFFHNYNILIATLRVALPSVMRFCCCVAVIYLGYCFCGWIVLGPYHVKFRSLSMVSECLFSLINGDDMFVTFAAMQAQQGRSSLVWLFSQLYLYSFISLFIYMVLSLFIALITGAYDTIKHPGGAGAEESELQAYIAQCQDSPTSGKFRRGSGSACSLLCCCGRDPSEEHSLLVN
#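 Cells: TRPML1-DL, 1X Tet inducer, ~16 h at 37 degrees C/5% CO2. Dye: ABD Ca8 no-wash + quencher, 45-90 min RT. Read: 10 s baseline, compound add, 110 s agonist phase; 54-4 EC80 (4uM final), 110 s antagonist phase.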
# CtBP-E1A blk: qHTS Assay for Inhibitors of the CtBP/E1A Interaction; CtBP / adenovirus E1A interaction (AlphaScreen); AlphaScreen GST-E1A/His-CtBP binding, 1536-well; active compounds read low; control for the full effect not named in the record; activity change, % (test concentration not listed); actives 0.49% (n = 340,000); AID 651724, 2012; in the data active means activity change below about -65%; inconclusive means about -30% to -65%; inactive means above about -30%; also: % is scaled to controls: 0 for no effect and ±100 for the full control effect
#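 Steps: dispense buffer (Tris pH 8.0, NaCl 300 mM, TCEP 1 mM, BSA, Tween 20); add 5X protein mix (GST-E1A, His-CtBP, 125 nM each); pin 23 nL compound; 2 h at 37 °C, dark; add 5X beads (50 ug/mL); 1 h; read.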
# Six1-Eya2 inh: qHTS Assay for Inhibitors of the Six1/Eya2 Interaction | actives 0.56% (n = 360,000) | AID 651725, 2012 | AlphaScreen GST-Six1/His-Eya2 binding, biochemical; active compounds read low; control for the full effect not named in the record | activity change, % (concentration not given with the values); in the data active = activity change below about -65%; inconclusive = about -30% to -65%; inactive = above about -30%; also: % is scaled to controls: 0 for no effect and ±100 for the full control effect
#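 Compounds are tested against tagged Six1 and Eya2 proteins bridged by glutathione donor and nickel acceptor beads; after a one-hour incubation at 37 °C without light, AlphaScreen emission is recorded.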
# TRPML1 blocker: qHTS for Inhibitors of the Human Mucolipin Transient Receptor Potential 1 (TRPML1). TRPML1-inducible cells, Ca2+ dye fluorescence, FDSS; active compounds read low; inhibition of EC80 agonist-evoked calcium signal. AID 624415, 2012. actives 0.02% (n = 390,000). activity change, negative = inhibition, % (no concentration beside the values); in the data active means activity change below about -50%; inconclusive means about -30% to -50%; inactive means above about -30%;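 also: stimulus is agonist 54-4 at its EC80 concentration; % is scaled to controls: 0 for no effect and ±100 for the full control effect; compound concentration not given in the record; the text of the record puts the active cut at -80%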
#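 Calcium fluorescence in TRPML1-DL cells induced overnight with Tet: a 110 s read after compound pin addition, then a 110 s antagonist read after challenge with 54-4 at 4 uM final (EC80).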
# D2 PAM: Beta-Arrestin HTS for Positive Allosteric Modulators of the Human D2 Dopamine Receptor: Potentiators. D(2) dopamine receptor (Homo sapiens), P14416. DiscoveRx D2 beta-arrestin cells, luminescence, 90 min; 100% = 57 uM dopamine signal. potentiation, % (test concentration not listed). actives 0.23% (n = 360,000); active = potentiation of 50% or more; inconclusive = 30% to 50%; inactive = 30% or less;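 also: compound concentration not given in the record; tested on top of an EC20 dose of dopamine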
# Target sequence (P14416 whole entry, looked up): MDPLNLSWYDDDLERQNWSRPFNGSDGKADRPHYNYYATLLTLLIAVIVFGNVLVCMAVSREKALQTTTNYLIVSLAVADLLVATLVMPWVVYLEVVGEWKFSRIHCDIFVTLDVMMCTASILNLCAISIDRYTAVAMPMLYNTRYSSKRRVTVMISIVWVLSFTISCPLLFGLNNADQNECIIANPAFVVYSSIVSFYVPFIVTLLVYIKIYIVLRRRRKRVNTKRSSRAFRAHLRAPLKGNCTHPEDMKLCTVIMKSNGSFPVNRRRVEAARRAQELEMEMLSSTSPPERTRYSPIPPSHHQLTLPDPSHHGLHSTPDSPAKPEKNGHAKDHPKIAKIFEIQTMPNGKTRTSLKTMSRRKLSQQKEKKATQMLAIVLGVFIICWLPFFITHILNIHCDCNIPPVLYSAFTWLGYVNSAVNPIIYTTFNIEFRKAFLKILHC
#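 PathHunter D2 cells, attached overnight at 37 deg C, received compound in DMSO plus dopamine at EC20 (50 nM final) for 90 min at 37 deg C. Beta-arrestin recruitment was read as luminescence after 1 h with detection reagent at ambient temperature.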
# TRPV1 PAM: HTS Assay for Compounds that Act as Potentiators of the Vanilloid Receptor 1. potentiation, % at 8.33 µM. actives 0.02% (n = 320,000). AID 540277, 2011. Transient receptor potential cation channel subfamily V member 1 (Homo sapiens), Q8NER1. TRPV1-expressing cells, Fluo-8 calcium influx, capsaicin EC20 potentiation; host cell line not named in the record; control for the full effect not named in the record; active means potentiation above 80%; inconclusive means 30% to 80%; inactive means below 30%; also: 0% is about no effect
#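 Fluo-8 calcium influx in TRPV1-expressing cells, kinetic read (ex 480/em 520 nm). Compound added and read 3 min for agonist activity, followed by capsaicin at EC20 final and 2 min further read for enhancement.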
# * hit, by the source's call; ? = inconclusive; nt = no result given.
# Below each compound – TRPML1 ag, CtBP-E1A blk, Six1-Eya2 inh, TRPML1 blocker, D2 PAM, TRPV1 PAM
> CC(=O)Nc1ccc(NC(=O)C(C)N2CCN(S(=O)(=O)c3ccc(C)cc3)CC2)cc1 (stereo not drawn)
  -1.0, -12, 12, -9, -3, -7
> C/C(=N\NC(=O)c1ccc(CSc2cccc3cccnc23)cc1)C1CCCCC1
  1.0, -10, -4, -17, 10, 5
> COCCn1c(CN(C)Cc2ccccc2)nc2c1c(=O)n(C)c(=O)n2C
  0.0, 2, 2, -7, -1, -9
> Cc1ccccc1C(OCCN(C(C)C)C(C)C)c1ccccc1 (stereo not drawn)
  0.7, 3, -2, -16, -34, 6
> CC(=O)c1cccc(CN2CCCC(CCC(=O)NCc3ccc(F)c(F)c3)C2)c1 (stereo not drawn)
  0.7, nt, 8, -16, -16, ?
> COc1ccc(C2C(C(C)=O)=C(O)C(=O)N2c2ccc(F)cc2)cc1 (stereo not drawn)
  0.8, -8, 9, -1, 0, 5
> Cc1ccc(S(=O)(=O)N2CC(O)C[C@H]2C(=O)OCC(=O)Nc2ccc(N3CCCCC3)cc2)cc1C (stereo partly drawn)
  0.3, -17, -22, -15, 2, -7
> O=c1[nH]n2c(=O)c3c([nH]c2c1N=Nc1cccc(Cl)c1)CCCC3
  1.3, -17, ?, 5, -24, -12
> C/C(=N/OC(=O)c1ccc(C)cc1)c1cccs1
  -0.4, 14, 20, 35, -16, -2
> CCOC(=O)c1c(C)[nH]c(C(=O)COC(=O)c2ccccc2NC(=O)c2ccco2)c1C
  0.1, 0, 0, 34, 2, 24
> CCCC(=O)Nc1nc2c(C)c(Cl)ccc2s1
  -0.8, 6, 9, 35, -7, -1
> CC(=O)N1CCc2c(sc(NC(=O)Cc3ccccc3)c2C(N)=O)C1
  -0.5, -1, -5, 23, -9, 27
> NC(=O)c1cnn2c(C(F)(F)F)cc(-c3ccccc3)nc12
  1.1, -2, -21, 52, -8, 4
> CCOC(=O)c1ccc(S(=O)(=O)Nc2ccc3cn[nH]c3c2)cc1
  -1.0, -3, -2, -13, 1, -7
> Oc1ccccc1/C=N/NC(=S)NCCc1ccccc1
  3.6, -65*, ?, 1, -15, 17

# Continued.
# Below each compound – TRPML1 ag, CtBP-E1A blk, Six1-Eya2 inh, TRPML1 blocker, D2 PAM, TRPV1 PAM
> COc1ccc(CCNC(=O)CCC2COc3ccccc3O2)cc1OC (stereo not drawn)
  0.6, -2, 0, -26, -3, -10
> CCc1n[nH]c2c1/C(=N\O)CC(C)(C)C2
  0.5, 4, 10, -25, -7, 2
> Cn1c(CNC(=O)c2ccc(Cl)c(Cl)c2)nnc1SCC(=O)Nc1sc2c(c1C#N)CCCC2
  -0.5, 0, 0, 4, -6, 2
> COC(=O)c1sc(-c2ccccc2)cc1NC(=O)c1ccccc1
  -0.2, 2, 11, 11, 0, 1
> Cc1ccc(S(=O)(=O)N2CCN(CC(=O)NCC3(N4CCOCC4)CCCCC3)CC2)cc1
  -0.4, -1, 6, 6, -1, 11
> CN(C)c1ccc(NC(=O)c2ccc(N3CCOCC3)nc2)cc1
  -0.2, -26, 3, 0, -13, -16
> CCOC(=O)c1c(N)sc(C(C)=O)c1C
  -1.2, -6, -5, 6, -22, 17
> COc1ccc(-n2ncc3c(N4CCCCC4)ncnc32)cc1
  -1.4, 7, -8, -14, 9, -20
> O=C(CN1CCN(c2ccccc2O)CC1)Nc1ccc2c(c1)CCC2
  3.9, -22, -6, -3, -16, -3
> CC(=O)c1cnc2cc(-c3ccc(C)cc3)nn2c1C
  0.4, 7, 14, -4, -18, -9
> Cc1ccc(CN2CCN(/N=C/c3cc([N+](=O)[O-])ccc3Cl)CC2)cc1
  -0.7, ?, ?, 35, -29, 6
> Brc1ccc(-c2noc3c2-c2nc(-c4ccccc4)sc2CC3)cc1
  -0.8, 5, 2, -3, -4, nt
> Clc1ccccc1C(c1nnnn1Cc1ccco1)N1CCN(Cc2ccco2)CC1 (stereo not drawn)
  -0.3, 21, 0, -1, -26, 3
> CCN(CCn1cccn1)C(=O)CC1C(=O)NCCN1Cc1cc(OC)cc(OC)c1 (stereo not drawn)
  1.8, -20, 2, 5, -1, -1
> O=C(c1ccccn1)N(c1ccccc1)C1(C(=O)NC2CCCCC2)CCCCC1
  -0.5, 8, 2, -8, 0, -8

# The list continues:
# Below each compound – TRPML1 ag, CtBP-E1A blk, Six1-Eya2 inh, TRPML1 blocker, D2 PAM, TRPV1 PAM
> COc1ccc(-n2c3c(cc(C#N)c2=O)C(=O)CCC3)cc1
  -0.1, -4, 9, -13, 0, 0
> COc1ccc(C)cc1S(=O)(=O)N(C)CC(=O)NC1CCCCC1
  1.1, 2, 1, -7, -15, 13
> Cc1cccc2[nH]c(-c3ccc(NC(=O)c4ccco4)cc3)nc12
  -0.8, -5, -1, 11, 4, -2
> C/C(=N\N1CCN(c2ccc(Cl)cc2)CC1)c1cccs1
  -0.3, 5, -4, -4, 11, 5
> CCOC(=O)C1(Cc2cccc(Cl)c2)CCCN(C(=O)CCOC)C1 (stereo not drawn)
  -0.3, 4, 2, -13, -7, -9
> CCOC(=O)[C@@H]1[C@H]2COc3ccc(Br)cc3[C@@H]2N2C(=O)N(c3ccc(F)cc3)C(=O)[C@]12C
  1.0, -18, -6, -14, -6, 11
> S=C1NCCOCCOCCOCCNC(=S)NCCOCCOCCOCCN1
  0.7, 6, 9, -19, -8, 20
> Cc1ccccc1-n1c(C)nnc1SCc1nc2ccccc2s1
  -0.2, 8, -1, 4, -23, 5
> CCN(C(=O)CSc1ncn[nH]1)C1CCCCC1
  -0.4, 2, 3, 6, -22, -1
> O=C(Cc1ccc(Cl)cc1)Nc1ccc(-c2cc3ccccc3oc2=O)c(Cl)c1
  -1.2, 5, 3, 5, 10, -4
> O=C(NN=C1CCCCCC1)c1ccc2c(c1)OCO2
  1.4, -1, -5, -9, -10, -3
> CCOc1ccccc1NC(=O)CN1C(=O)COc2ccc(Cl)cc21
  2.1, 0, 8, 5, -5, 4
> CCOc1cc(/C=N/NC(=O)C(O)(c2ccccc2)c2ccccc2)ccc1OC(=O)c1ccco1
  2.1, -5, -3, ?, 15, nt
> Cc1c(OCC(=O)N(C)C)ccc2c3c(c(=O)oc12)CCCCC3
  0.7, nt, 3, 38, -9, -2
> COc1ccc(-c2ccnc3nc(N4CCN(c5ccccc5)CC4)nn23)cc1
  1.6, 3, -1, 7, -2, -20

# (cont.)
# Below each compound – TRPML1 ag, CtBP-E1A blk, Six1-Eya2 inh, TRPML1 blocker, D2 PAM, TRPV1 PAM
> COc1ccc(NC(=O)c2cnc(SC)nc2)cc1
  -0.2, nt, 8, 3, -13, -23
> Cc1cccc(N(C(=O)CNC(=O)c2ccco2)C(C(=O)NC2CCCC2)c2cccnc2)c1 (stereo not drawn)
  -0.9, 2, -3, 13, 15, -9
> Cc1ccc(C(=O)c2c3ccc(C(F)(F)F)cc3[n+]([O-])n2CCCN)cc1
  0.3, nt, 0, -14, -8, 9
> CN(CC(=O)Nc1ccccc1Br)C(=O)COc1ccc2ccccc2c1
  0.6, nt, -1, 9, -3, -6
> O=C(c1ccc([N+](=O)[O-])c(CS(=O)(=O)c2ccc(Cl)cc2)c1)N1CCCCC1
  -0.9, 2, 3, -3, -1, 7
> Cc1nc(C)n(CC(=O)c2ccc(Cl)cc2Cl)n1
  -0.2, -1, 3, 21, -1, -12
> CCOC(=O)C1CCN(C(=O)CNC(=O)OC(C)(C)C)CC1
  -0.7, 2, -1, -2, -22, -2
> CS(=O)(=O)Nc1ccc(C(=O)N2CCN(c3ccccc3F)CC2)cc1
  -0.1, 4, 4, 38, -3, -16
> O=C(CSc1nnc2ccccn12)NCCc1ccc(F)cc1
  -0.8, -3, 9, 0, -1, 2
> CCOc1cccc(OCCOCCNC(C)(C)C)c1
  -0.5, -3, 9, -19, -14, -1
> CCN(CC)S(=O)(=O)c1cccc(-c2nnc(C(=O)c3ccc(C(F)(F)F)cc3)o2)c1
  -0.7, 8, -6, 34, -15, 3
> O=C(O)c1cc(NC(=S)NC(=O)C(c2ccccc2)c2ccccc2)ccc1Cl
  -0.2, 4, -3, 3, -1, 12
> Cc1ccc(-n2c(SCC(=O)Nc3cccc(C)c3)nc3c(oc4ccccc43)c2=O)cc1
  0.4, nt, nt, -2, nt, 13
> COc1ccc(COC(=O)N/N=C/c2cccs2)cc1
  1.2, 1, 4, -2, -3, -8
> Cc1c(NC(=O)c2cccc(NC(=O)COc3ccccc3C#N)c2)c(=O)n(-c2ccccc2)n1C
  0.1, 0, 2, -3, 1, -14

# (list continues)
# Below each compound – TRPML1 ag, CtBP-E1A blk, Six1-Eya2 inh, TRPML1 blocker, D2 PAM, TRPV1 PAM
> O=C(Cn1cnc2ccccc2c1=O)NCc1cccs1
  -0.8, -2, 6, -5, -20, 6
> COc1ccc(NC2c3ccccc3C(=O)N2Cc2ccc3c(c2)OCO3)cc1 (stereo not drawn)
  0.1, -16, -22, 19, -2, 3
> CCc1ccc2nc(NC(=O)Cn3cnc4ccccc4c3=O)sc2c1
  nt, 3, 1, nt, 9, -3
> CCN(CC)CCCn1c2c(c(SCC(=O)Nc3cccc4ccccc34)nc1=O)CCC2
  0.9, -1, -2, 8, -24, -2
> CC(C)OCC(O)CN1CCN(CCN2C(=O)c3cccc4cccc(c34)C2=O)CC1 (stereo not drawn)
  1.3, nt, 2, -18, -10, -3
> Cc1c(C(=O)c2no[n+]([O-])c2C(=O)c2cnn(C)c2C)cnn1C
  -1.0, 1, 1, 3, 19, 14
> Cc1ccc(-n2nc(C)c(=O)c(-c3ccccc3)c2NC(=O)C(C)C)cc1
  3.5, -21, 3, 24, -2, -12
> COc1ccccc1OCCCn1c(=O)oc2ccccc21
  1.5, 7, -4, -8, -5, -5
> CCN(C(=O)CN1CCN(c2ccc(OC)cc2)CC1)c1c(N)n(Cc2ccccc2)c(=O)[nH]c1=O
  -0.6, 2, 0, 3, -6, -4
> COc1ccc(NCCC(O)c2ccc(Cl)cc2)cc1 (stereo not drawn)
  -1.5, -8, -8, -6, -5, -1
> CCOC(=O)c1sc2nc(C)nc(NCc3ccccc3OC)c2c1C
  1.3, 8, 5, 8, -3, -8
> CC(C)NS(=O)(=O)c1ccc(OCC(N)=O)c(Cl)c1
  -0.4, 1, -7, 16, -11, -17
> Cc1cc(C(=O)OCC(=O)N(C)c2c(N)n(Cc3ccccc3)c(=O)[nH]c2=O)c(C)n1-c1ccccc1
  0.3, 0, -5, 3, 0, 14
> Cc1cc(C)n(CCCNC(=O)CCNS(=O)(=O)c2ccccc2C(F)(F)F)n1
  -0.1, 5, 1, -5, -7, -2
> S=C(Nc1ccc(Oc2ccccc2)cc1)NC1CCCC1
  1.3, -3, 1, 35, 0, -5

# Compounds listed so far with a tert-butyl group:
# Below each compound – TRPML1 ag, CtBP-E1A blk, Six1-Eya2 inh, TRPML1 blocker, D2 PAM, TRPV1 PAM
> CCOC(=O)C1CCN(C(=O)CNC(=O)OC(C)(C)C)CC1
  -0.7, 2, -1, -2, -22, -2
> CCOc1cccc(OCCOCCNC(C)(C)C)c1
  -0.5, -3, 9, -19, -14, -1
